HIV Env fusion – blocks HIV Env-driven cell-cell fusion | HeLa-JRFL Env/CEM21 cell fusion, luciferase | inhibition, % at 12.3 µM | 360,000 tested, 1.1% active;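 active means mean replicate inhibition score of at least 50 and every replicate individually at or above 50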;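 further: 0% = plate neutral controls and 100% = maraviroc near 300 nM; one replicate is shown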
CSC inhib – cancer stem cell inhibition; AID 2717; inhibition, % at 7.5 µM; cancer stem cell-like cells viability, luminescence; 300,000 tested, 1.1% active;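 active means mean at 75% or more and at least half the replicates too; tested in HMLE shEcad cells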;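 further: 0% = median of negative and 100% = median of positive control wells; the first replicate is given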
MT1-MMP act inh – inhibitors of human MT1-MMP activation. P50281. HT1080 RFP-PRO-GFP cells, GFP/RFP ratio fluorescence, overnight; percent of plate control window, DMSO zero. GFP/RFP ratio change, % at 20 µM. 360,000 tested, 0.061% active. AID 651647;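 active means GFP/RFP ratio change of at least 30% with cell ATP level not reduced by more than half and red fluorescence within 50% of control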; further: strong numbers were not always called active
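Assay system – RFP-PRO-GFP reporter HT1080 cells · Compound dosing – single dose of 20 µM compound, 1% DMSO final · Incubation – overnight compound exposure at 37 °C · Measure – GFP/RFP fluorescence ratio · Benchmarks – DMSO wells and RFP-L50D-GFP cells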
Rce1 inhib – inhibitors of yeast Ras-converting enzyme; yeast membranes, quenched prenylated peptide cleavage fluorescence; 290,000 tested, 0.27% active; Q03530; calls only; AID 2563;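 active means fall in fluorescence gain of 50% or more versus controls, with final raw signal at or below 3038400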;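 further: plate controls were neutral control wells for no effect and wells lacking membranes for full effect; tested at 10 µM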
Target sequence (Q03530 whole entry, looked up): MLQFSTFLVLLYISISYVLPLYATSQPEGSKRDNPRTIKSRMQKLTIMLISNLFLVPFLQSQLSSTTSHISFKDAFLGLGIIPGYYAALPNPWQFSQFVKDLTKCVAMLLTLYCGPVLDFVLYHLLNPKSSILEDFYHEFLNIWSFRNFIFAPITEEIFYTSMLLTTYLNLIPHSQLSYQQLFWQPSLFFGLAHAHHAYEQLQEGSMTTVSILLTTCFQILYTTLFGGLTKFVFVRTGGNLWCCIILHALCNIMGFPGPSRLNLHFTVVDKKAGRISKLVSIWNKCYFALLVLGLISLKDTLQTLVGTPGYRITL
Yeast UUG start – modulators of start codon recognition fidelity in yeast. S. cerevisiae UUG-firefly luciferase reporter, luminescence/redox ratio. activity score, % at 18.7 µM. 350,000 tested, 0.13% active;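 active means replicate mean at a twofold rise or more, about +100% in these data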;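 further: firefly luciferase made from a UUG start codon reports start codon fidelity; reporter light over untreated wells divided by growth signal over untreated wells; some hits fall short of that in this replicate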
MT1-MMP act inh RFP – second read-out of MT1-MMP act inh, no call of its own (marks repeat the call); RFP signal change, %; measured here: RFP expression control read;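 0 = vehicle wells; hits needed this value within 50% of zero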
* marks the source's active call; other numbers are inactive results; [ ] = another dose, or the depositor's remark. These rows are one share of the data; count on the stated rates, not on these rows.

What do the screens show for `O=C(Nc1cc(F)ccc1F)c1cccc(-n2cnnn2)c1`?
MT1-MMP act inh: 5; Rce1 inhib: inactive; MT1-MMP act inh RFP: -1

How did Cc1ccccc1C(=O)N1CCC(C(=O)Nc2cc(C(F)(F)F)ccc2N2CCCC2)CC1 do in these assays?
MT1-MMP act inh: 1; Rce1 inhib: inactive; MT1-MMP act inh RFP: -5

What do the screens show for `Nc1nc(SCC(=O)Nc2cc(Cl)ccc2Cl)n[nH]1`?
HIV Env fusion: 19; CSC inhib: -8

Results for CC(C)CC1NC(=O)c2ccccc2-n2c1nc1cc(F)ccc1c2=O (stereo unspecified) ?
HIV Env fusion: -22; CSC inhib: -7

What do the screens show for `CC1NC(=O)c2ccccc2-n2c1nc1cc(F)ccc1c2=O` (stereo unspecified)?
HIV Env fusion: -5; CSC inhib: -16

What do the screens show for `CC(Oc1cccnc1[N+](=O)[O-])C(=O)N1CCc2ccccc21` (stereo unspecified)?
HIV Env fusion: 23; CSC inhib: 8

What do the screens show for `Cc1ccc2nc3n(c(=O)c2c1)-c1ccc(Cl)cc1C(=O)NC3Cc1ccccc1` (stereo unspecified)?
HIV Env fusion: -4; CSC inhib: -15

What do the screens show for `COc1ccc(OC)c(N=C2SCCCN2C(=O)c2ccc(N3C(=O)CCC3=O)cc2)c1`?
HIV Env fusion: -9; CSC inhib: -1

What do the screens show for `O=C(NC1CC1)c1ccc2c(c1)S(=O)(=O)c1cc(Cl)ccc1C2=O`?
HIV Env fusion: 12; CSC inhib: -9

How did CC(=O)Nc1cccc(NC(=O)/C=C/c2ccc(S(=O)(=O)N3CCOCC3)cc2)c1 do in these assays?
HIV Env fusion: 12; CSC inhib: -9

How did COc1ccc2c(c1)OC[C@H]1[C@H]2N2C(=O)CNC(=O)[C@@]2(C)[C@H]1c1ccccc1 do in these assays?
HIV Env fusion: -20; CSC inhib: -10

How did CC(C)[C@H](NC(=O)c1ccccc1F)C(=O)OCCN1C(=O)c2ccccc2C1=O do in these assays?
HIV Env fusion: -6; CSC inhib: 6

How did N#Cc1ccc(S(=O)(=O)N2CCN(CC(=O)NCC3(N4CCOCC4)CCCCC3)CC2)cc1 do in these assays?
CSC inhib: -7; MT1-MMP act inh: 4; MT1-MMP act inh RFP: 2

What do the screens show for `Cc1cc(C)c(C(N)=O)c(SCC(=O)c2cc(C)n(-c3cc(C)on3)c2C)n1`?
CSC inhib: 19; MT1-MMP act inh: 7; MT1-MMP act inh RFP: -26

Results for CC(C)Oc1ccc(S(=O)(=O)N2CCOCC2)cc1NC(=O)CC1CCCC1 ?
CSC inhib: -4; MT1-MMP act inh: -2; MT1-MMP act inh RFP: 0

What do the screens show for `CCCCN(C(=O)c1c(CC)noc1C)c1c(N)n(CCCC)c(=O)[nH]c1=O`?
CSC inhib: -11; MT1-MMP act inh: 0; MT1-MMP act inh RFP: 0

What do the screens show for `Cc1cc(NC(=O)c2ccoc2C)ccc1Br`?
CSC inhib: 18; MT1-MMP act inh: -3; MT1-MMP act inh RFP: -1

Results for CCCCN(C(=O)c1ccc2c(c1)S(=O)(=O)N=C1CCCCCN12)c1c(N)n(CCCC)c(=O)[nH]c1=O ?
CSC inhib: 10; MT1-MMP act inh: -2; MT1-MMP act inh RFP: 2

Results for CCN(CC(=O)Nc1c(F)cccc1F)C(=O)c1cn2ccccc2n1 ?
CSC inhib: -17; MT1-MMP act inh: 0; MT1-MMP act inh RFP: 4

Results for N#Cc1ccccc1OCC(=O)Nc1cccc(S(=O)(=O)N2CCCC2)c1 ?
CSC inhib: 2; MT1-MMP act inh: 1; MT1-MMP act inh RFP: -7

How did CC(=O)c1sc(NC(=O)CCN2C(=O)C3CC=CCC3C2=O)nc1-c1ccccc1 (stereo unspecified) do in these assays?
CSC inhib: -4; MT1-MMP act inh: -4; MT1-MMP act inh RFP: -1

What do the screens show for `O=C(CNC(=O)c1ccc(Cl)cc1Cl)OCc1nnc(-c2ccccc2Br)o1`?
CSC inhib: -4; MT1-MMP act inh: 0; MT1-MMP act inh RFP: 1

Results for CN(C)C(=O)CSc1ccccc1C(=O)OCC(=O)NC1CC1 ?
CSC inhib: -6; MT1-MMP act inh: 2; MT1-MMP act inh RFP: 5

How did CC1(C(=O)Nc2cccc(-n3cnnn3)c2)Cc2ccccc2C(=O)O1 (stereo unspecified) do in these assays?
CSC inhib: 12; MT1-MMP act inh: 3; MT1-MMP act inh RFP: -3

Results for Cc1ccc(S(=O)(=O)N(C)c2ccc(OCC(=O)OCc3ccc(C#N)cc3)cc2)cc1 ?
CSC inhib: -16; MT1-MMP act inh: 2; MT1-MMP act inh RFP: 2

What do the screens show for `Cn1cccc1C(=O)OCc1nc2ccccc2c(=O)[nH]1`?
CSC inhib: 15; MT1-MMP act inh: -4; MT1-MMP act inh RFP: 0

What do the screens show for `CCOC(=O)C1=C(COC(=O)/C=C/c2ccc(O)c(OC)c2)NC(=O)NC1C` (stereo unspecified)?
CSC inhib: 4; MT1-MMP act inh: 1; MT1-MMP act inh RFP: -1

What do the screens show for `CCN(c1ccccc1)S(=O)(=O)c1ccc(C(=O)NC2CCN(Cc3ccccc3)CC2)cc1`?
CSC inhib: 32; MT1-MMP act inh: 15; MT1-MMP act inh RFP: -32

Results for CCN(CC(=O)Nc1cc(Cl)ccc1C)C(=O)c1ccc(N2CCCC2=O)cc1 ?
CSC inhib: -7; MT1-MMP act inh: -1; MT1-MMP act inh RFP: 3

Results for CC(C)CC#Cc1cnc2c(c1)C(=O)N([C@@H](C)CO)C[C@@H](C)[C@H](CN(C)S(=O)(=O)c1ccccc1)O2 ?
HIV Env fusion: -32[16.7 µM]; Yeast UUG start: 12

What do the screens show for `C[C@H](CO)N1C[C@H](C)[C@@H](CN(C)Cc2ccc(C(F)(F)F)cc2)OCCCC[C@H](C)Oc2ccc(NS(=O)(=O)c3ccc(Cl)cc3)cc2C1=O`?
HIV Env fusion: 55*[16.7 µM]; Yeast UUG start: 2

Results for Cc1cc(C(=O)Nc2cccc3c2O[C@H](CN(C)C(=O)NC2CCCCC2)[C@@H](C)CN([C@H](C)CO)C3=O)n(C)n1 ?
HIV Env fusion: -2[16.7 µM]; Yeast UUG start: 0

Results for CCNC(=O)Nc1ccc2c(c1)C(=O)N(C)[C@@H]1CC[C@@H](CC(=O)NCC3CC3)O[C@@H]1CO2 ?
HIV Env fusion: 10[16.7 µM]; Yeast UUG start: 6

Results for CS(=O)(=O)N1[C@H](CO)[C@@H](c2ccc(C#CC3CC3)cc2)[C@@H]1C#N ?
HIV Env fusion: -7[16.7 µM]; Yeast UUG start: -8

What do the screens show for `C[C@H]1CCCCO[C@@H](CN(C)Cc2ccc(C(F)(F)F)cc2)[C@@H](C)CN([C@@H](C)CO)C(=O)c2cc(NC(=O)Nc3cccc4ccccc34)ccc2O1`?
HIV Env fusion: 61*[16.7 µM]; Yeast UUG start: 3

How did C[C@@H]1CN([C@@H](C)CO)C(=O)Cc2cc(NC(=O)CCC(F)(F)F)ccc2O[C@H]1CN(C)C(=O)Nc1ccccc1 do in these assays?
HIV Env fusion: 6[16.7 µM]; Yeast UUG start: -12

Continued (4 carried over from the part before).
Results for CCNC(=O)Nc1ccc2c(c1)C(=O)N(C)[C@@H]1CC[C@@H](CC(=O)NCC3CC3)O[C@@H]1CO2 ?
HIV Env fusion: 10[16.7 µM]; Yeast UUG start: 6

Results for CS(=O)(=O)N1[C@H](CO)[C@@H](c2ccc(C#CC3CC3)cc2)[C@@H]1C#N ?
HIV Env fusion: -7[16.7 µM]; Yeast UUG start: -8

What do the screens show for `C[C@H]1CCCCO[C@@H](CN(C)Cc2ccc(C(F)(F)F)cc2)[C@@H](C)CN([C@@H](C)CO)C(=O)c2cc(NC(=O)Nc3cccc4ccccc34)ccc2O1`?
HIV Env fusion: 61*[16.7 µM]; Yeast UUG start: 3

How did C[C@@H]1CN([C@@H](C)CO)C(=O)Cc2cc(NC(=O)CCC(F)(F)F)ccc2O[C@H]1CN(C)C(=O)Nc1ccccc1 do in these assays?
HIV Env fusion: 6[16.7 µM]; Yeast UUG start: -12

What do the screens show for `CC(=O)N(C)C[C@H]1Oc2ncc(C#Cc3ccccn3)cc2C(=O)N([C@@H](C)CO)C[C@H]1C`?
HIV Env fusion: -25[16.7 µM]; Yeast UUG start: 10

Results for COc1ccccc1S(=O)(=O)N[C@@H]1CC[C@@H](CCNC(=O)C2CCCCC2)O[C@@H]1CO ?
HIV Env fusion: -7[16.7 µM]; Yeast UUG start: -3

Results for CC(C)NC(=O)N(C)C[C@H]1OCCCC[C@H](C)Oc2ccc(NS(=O)(=O)c3ccccc3)cc2C(=O)N([C@@H](C)CO)C[C@H]1C ?
HIV Env fusion: -47[16.7 µM]; Yeast UUG start: -5

How did CC(C)c1cn(CC[C@@H]2CC[C@H](NS(=O)(=O)c3ccc(Cl)cc3)[C@@H](CO)O2)nn1 do in these assays?
HIV Env fusion: 1[16.7 µM]; Yeast UUG start: 12

Results for C[C@H](CO)N1C[C@H](C)[C@@H](CN(C)S(=O)(=O)c2ccc(F)cc2)Oc2c(NC(=O)Nc3ccc(F)cc3)cccc2C1=O ?
HIV Env fusion: 12[16.7 µM]; Yeast UUG start: 15

What do the screens show for `CCCNC(=O)N(C)C[C@@H]1Oc2cc(C#CC3CC3)ccc2S(=O)(=O)N([C@H](C)CO)C[C@H]1C`?
HIV Env fusion: 11[16.7 µM]; Yeast UUG start: -1

What do the screens show for `COc1ccc(NC(=O)Nc2cccc3c2O[C@H](CN(C)S(=O)(=O)c2ccc(Cl)cc2)[C@@H](C)CN([C@H](C)CO)C3=O)cc1`?
HIV Env fusion: -7[16.7 µM]; Yeast UUG start: -3

Results for C[C@H](CO)N1C[C@H](C)[C@H](CN(C)Cc2cccc(F)c2)Oc2cc(-c3ccccc3)ccc2S1(=O)=O ?
HIV Env fusion: 44[16.7 µM]; Yeast UUG start: 3

Results for COc1ccccc1CNC(=O)C[C@@H]1C[C@@H]2c3cc(NC(=O)C4CCC4)ccc3O[C@@H]2[C@H](CO)O1 ?
HIV Env fusion: -1[16.7 µM]; Yeast UUG start: -5

How did CNC(=O)C[C@@H]1CC[C@H]2[C@@H](COc3ccc(NC(=O)Nc4ccc(F)c(F)c4)cc3C(=O)N2C)O1 do in these assays?
HIV Env fusion: -9[16.7 µM]; Yeast UUG start: 40

What do the screens show for `C[C@H]1CN([C@@H](C)CO)C(=O)Cc2cc(NC(=O)C3CC3)ccc2O[C@H]1CN(C)S(=O)(=O)c1cccs1`?
HIV Env fusion: 34[16.7 µM]; Yeast UUG start: -13

What do the screens show for `CCCNC(=O)N(C)C[C@@H]1Oc2ncc(C#CCc3ccccc3)cc2C(=O)N([C@@H](C)CO)C[C@H]1C`?
HIV Env fusion: 9[16.7 µM]; Yeast UUG start: 11

How did COc1ccc(S(=O)(=O)N(C)C[C@@H]2Oc3c(NC(=O)C4CC4)cccc3C(=O)N([C@@H](C)CO)C[C@H]2C)cc1 do in these assays?
HIV Env fusion: 8[16.7 µM]; Yeast UUG start: 7

Results for COc1ccc(NC(=O)N(C)C[C@H]2Oc3c(NC(=O)C4CCCCC4)cccc3C(=O)N([C@@H](C)CO)C[C@H]2C)cc1 ?
HIV Env fusion: -4[16.7 µM]; Yeast UUG start: 10

Results for COc1ccccc1NC(=O)N[C@H]1CC[C@@H](CC(=O)N[C@H](C)c2ccccc2)O[C@@H]1CO ?
HIV Env fusion: -1[16.7 µM]; Yeast UUG start: -3

How did C[C@H](CO)N1C[C@H](C)[C@H](CN(C)C(=O)Nc2ccc(F)cc2)Oc2ncc(C#Cc3cccc(F)c3)cc2C1=O do in these assays?
HIV Env fusion: 24[16.7 µM]; Yeast UUG start: -11

Results for C[C@H]1CN([C@@H](C)CO)C(=O)Cc2cc(NS(=O)(=O)c3ccc(Cl)cc3)ccc2O[C@H]1CN(C)Cc1ccc(Cl)c(Cl)c1 ?
HIV Env fusion: 2[16.7 µM]; Yeast UUG start: -3

How did C[C@@H]1CN([C@@H](C)CO)C(=O)c2cc(NC(=O)Cc3ccccc3)ccc2O[C@@H](C)CCCCO[C@@H]1CN(C)S(=O)(=O)c1ccc(F)cc1 do in these assays?
HIV Env fusion: 17[16.7 µM]; Yeast UUG start: -5

Results for C[C@@H]1CN([C@H](C)CO)S(=O)(=O)c2ccc(-c3cccc(F)c3)cc2O[C@@H]1CN(C)CC1CC1 ?
HIV Env fusion: 14[16.7 µM]; Yeast UUG start: 0

How did C[C@H](CO)N1C[C@H](C)[C@@H](CN(C)Cc2cccc(F)c2)Oc2ncc(C3=CCCCC3)cc2C1=O do in these assays?
HIV Env fusion: 15[16.7 µM]; Yeast UUG start: 17

Results for CC(=O)N[C@@H]1CC[C@H](CC(=O)NCc2ccc(Cl)cc2)O[C@@H]1CO ?
HIV Env fusion: 10[16.7 µM]; Yeast UUG start: -13
